NPYLR7 agonist: activates Aedes aegypti NPYLR7 receptor; HEK293T NPYLR7/Galpha15, GCaMP6s calcium fluorescence; activation, % at 10 µM; actives 0.15% (n = 270,000); AID 1259423; in the data active means activation above about 40%;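 further: 0% = vehicle and 100% = reference agonist at the receptor; some compounds past the cut are filed as inactive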
NPYLR7 agonist max-min: also measured in NPYLR7 agonist; calls as there; activation, %; measured here: Max-Min RFU normalised activation; some inactives read as strong as hits;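 span of the calcium signal over five minutes; 0% = vehicle and 100% = native peptide agonist; compound fluorescence can raise it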
The depositor's hits bear a star; & = joins results of further samples. A portion of the library (hit frequency here may not be typical).

smiles	NPYLR7 agonist	NPYLR7 agonist max-min
O=C1OC(CC(=O)N2CCN(c3ncccn3)CC2)c2ccccc21 (configuration not stated)	5.0	12.7
CCc1cc(C(=O)Nc2c(OC)ncnc2N(C)C)sc1C	-1.7	-4.0
O=C(c1ccc(CSCc2cccs2)cc1)N1C2CCC1CC(Oc1ccc(F)cc1F)C2 (configuration not stated)	3.9	16.1
Cc1ccc(Cl)cc1-n1nnc(C(=O)Nc2ccccc2)c1C	-0.4	-1.9
CCOC(=O)c1cc(C)nn1C1CCN(C(=O)c2cc3ccccc3s2)CC1	3.4	1.5
Cc1onc(-c2ccccc2)c1C(=O)Nc1ccc(C(C)C)cc1	-2.7	-4.3
COc1ccc(N(CC(=O)NC(N)=O)Cc2ccc(C(C)C)cc2)cc1	-4.7	-5.1
Cc1cccc(-c2noc(CN(C)Cc3cccn3-c3nccs3)n2)c1	3.3	-8.3
O=C(Nc1cc(-c2ccccc2)nn1-c1cc(Cl)ccc1Cl)c1cccc(Cl)c1	4.8	-1.2
CC(C)COc1nc(-c2cccs2)n(-c2cccc(NC(=O)c3ccc(F)cc3)c2)n1	12.1	18.5
O=C(c1cccc(Cl)c1)N1CCCC1CC(O)c1cccs1 (configuration not stated)	8.5	2.2
COc1cc(NC(=O)c2cc(C)no2)ccc1N1CCOC1=O	3.6	1.4
O=C(C1CCCO1)N1CCC(NCc2csc3c2CCCC3)CC1 (configuration not stated)	3.3	5.6
CCCCCNC(=O)Nc1cc2c(cc1Cl)OCCO2	1.8	0.0
Cc1cc(C)cc(-c2nc3cc(C)ccn3c2NC(=O)c2ccc3ccccc3c2)c1	-9.0	-7.2
CCCOc1cc(C)ccc1NC(=O)CC(C)(C)CC(=O)O	6.0	4.1

Overlap with the part before: 2 entries; new compounds follow.
smiles	NPYLR7 agonist	NPYLR7 agonist max-min
Cc1cc(C)cc(-c2nc3cc(C)ccn3c2NC(=O)c2ccc3ccccc3c2)c1	-9.0	-7.2
CCCOc1cc(C)ccc1NC(=O)CC(C)(C)CC(=O)O	6.0	4.1
Cc1ccsc1C(=CCCN1CCC[C@@H](C(=O)O)C1)c1sccc1C	-13.0	-17.5
CNC(=O)CSc1nnc(C(C)C)c2cnn(-c3ccccc3)c12	-11.5	-17.5
Cc1ccc(S(=O)(=O)NCC2CSCCS2)cc1C (configuration not stated)	5.2	0.1
CCOc1ccc(-c2cc3c(=O)n(Cc4nc(-c5ccc(SC)cc5)no4)ccn3n2)cc1	-0.2	-1.2
O=C1C(C(c2ccc(Cl)cc2Cl)N2CCOCC2)Sc2nc(-c3ccco3)nn21 (configuration not stated)	6.4	5.1
Cc1noc(C)c1S(=O)(=O)NCCC(=O)O	7.0	5.6
O=C(CSc1ccccn1)N1CCc2c([nH]c3ccccc23)C1c1ccccc1F (configuration not stated)	-3.9	-10.0
COc1c(C)cc(C(=O)C2CCCN(C(=O)c3ccoc3)C2)cc1C (configuration not stated)	0.5	-0.5
Cc1nc2ccccn2c(=O)c1NC(=O)c1c(F)cccc1Cl	1.4	-0.3
COc1ccc(CN(CCO)C(=O)CCc2ccccc2)c(OC)c1	-0.3	-12.1
CCOC(=O)c1nn(-c2ccc(F)cc2)c(=O)cc1OCC(=O)NCc1ccccc1OC	5.5	2.4
CNS(=O)(=O)c1ccccc1F	6.5	4.2
CCOC(=O)Cc1cc(=O)n2[nH]cc(-c3cccc(Br)c3)c2n1	-5.7	-5.3
CC1(C(=O)NS(=O)(=O)c2cccc(Cl)c2)CCN1C(=O)C1(c2ccccc2)CC1 (configuration not stated)	3.0	6.8
CNC(Cc1ccc(Br)cc1)Cc1ccc(Br)cc1	21.4	12.6
CC(C)CC1NC(=O)N(c2ccccc2)C1=O (configuration not stated)	-2.4	-3.7
NC(=O)c1c(N=c2oc3ccc(Br)cc3cc2-c2nc3ccccc3[nH]2)sc2c1CCCC2	-5.3	-13.4
Cc1ccc(C2CC(c3cccs3)=NN2C(=O)c2ccc(Br)o2)cc1 (configuration not stated)	1.8	-1.8
Cc1c(C(=O)N(C)C2CC2)cnn1-c1ccc(C(F)(F)F)cn1	-0.7	-2.6
O=C1C2CC=CCC2C(=O)N1c1ccc(Oc2ccc3ccccc3c2)cc1 (configuration not stated)	0.3	-2.2
OC(CN1CCCN(CC2CCCO2)CC1)Cn1cccn1 (configuration not stated)	2.3	1.7
Cc1cccc(CC(=O)NCCSc2ncc(-c3ccccc3)[nH]2)c1	3.1	0.9
Cc1ccc(CN(C)C(=O)CN(C)c2c(C)noc2C)c(C)c1	-0.2	-1.3
O=C(CCNc1ccc(Cc2ccncc2)cc1)c1ccc2c(c1)OCO2	-0.4	-1.2
Nc1nc(Sc2cccs2)cc(N2CCOC(C(F)(F)F)C2)n1 (configuration not stated)	6.9	3.3
Cc1ccc(NC(=O)c2cc(S(=O)(=O)N(C)Cc3ccccc3)ccc2F)cc1	-4.8	-6.8
O=C(NCC1CCCO1)c1cc2n(n1)CCN(Cc1ccc(Cl)c(Cl)c1)C2=O (configuration not stated)	18.7	9.7
Cc1ccc(-c2cn[nH]c2C2CCCN(C(=O)c3ccc[nH]3)C2)cc1 (configuration not stated)	4.7	4.8
CSCCNC(=O)c1sc2ccccc2c1Cl	-1.2	-0.6
Cc1ccc(C(O)CSc2nnc(NCc3ccco3)s2)c(C)c1 (configuration not stated)	-0.1	5.0
CCOC(=O)c1cc(-c2ccccc2)sc1NC(=O)c1ccc(Cl)nc1	-5.9	-8.1
COc1ccc(-c2nccn2CCCN(C)C)c(OC)c1	-0.6	-3.5

Single records (already shown). Screens in order: NPYLR7 agonist | NPYLR7 agonist max-min
Listed for COc1ccc(-c2nccn2CCCN(C)C)c(OC)c1 → -0.6 | -3.5
Listed for CCOC(=O)c1cc(-c2ccccc2)sc1NC(=O)c1ccc(Cl)nc1 → -5.9 | -8.1
Listed for O=C(NCC1CCCO1)c1cc2n(n1)CCN(Cc1ccc(Cl)c(Cl)c1)C2=O (configuration not stated) → 18.7 | 9.7
Listed for Cc1ccc(-c2cn[nH]c2C2CCCN(C(=O)c3ccc[nH]3)C2)cc1 (configuration not stated) → 4.7 | 4.8
Listed for Cc1ccc(NC(=O)c2cc(S(=O)(=O)N(C)Cc3ccccc3)ccc2F)cc1 → -4.8 | -6.8

Going on with the list:
smiles	NPYLR7 agonist	NPYLR7 agonist max-min
Cc1cc(N2CCN(S(=O)(=O)NCc3ccccc3)CC2)n2ncnc2n1	6.1	3.4
O=C1OC(c2ccc3c(c2)OCO3)=N/C1=C\c1ccc(Br)cc1	11.9	14.2
CCOc1ccc(C(=O)N2CCN(C)C3(CCN(C)CC3)C2)cc1Cl	-3.9	-4.6
CCOc1ccccc1N1CCN(S(=O)(=O)c2ccc(OC)c3ccccc23)CC1	4.4	-0.3
CC(C)N1C(=O)[C@H]2CN(C(=O)N3CCOCC3)CCN2C1=O	-8.9	-13.4
S=C(NCc1ccccc1)N1CCn2cccc2C1c1ccncc1 (configuration not stated)	0.6	-1.9
COCC(=O)Nc1ccc(Nc2nc(C)cc(N3CCCCC3)n2)cc1	10.5	3.2
C=CCNc1ccccc1C(=O)NCc1nncn1C1CCCCC1	-1.0	28.5
COc1ccc(-c2nnc3ccc(OCCNC(=O)c4cccc(C)c4)nn23)cc1OC	-0.7	37.8
COc1ccccc1CNC(=O)CN(C)C(C)c1ccon1 (configuration not stated)	4.9	3.6
COc1cc(CO)ccc1OCC(C)C	14.2	7.5
O=C(c1ccc2ccccc2c1)C1CCCN(C(=O)NCc2ccccc2)C1 (configuration not stated)	-5.5&8.6	-7.1&-4.1
Brc1ccc(Nc2nc(-c3ccccc3)c3cc(Br)ccc3n2)nc1	16.4	15.0
CCOc1ccc(C(C)NC(=O)CCc2c(C)nc3c4ccccc4nn3c2C)cc1 (configuration not stated)	3.3	15.4
O=C(NCCCn1ccnc1)c1cc(N2CCN(Cc3ccccc3)CC2)nc2ccccc12	7.8	5.7
CCOc1ccccc1OCc1nn2cnnc2s1	1.9	-0.6
CN(CC1CCCN(CCc2ccc(F)cc2)C1)C(=O)c1cscn1 (configuration not stated)	12.1	4.8
CCSc1nnc2c(n1)OC(c1ccc(N(CC)CC)cc1)Nc1ccccc1-2 (configuration not stated)	-4.2	-7.6
CSc1nc2ccc(NC(=O)c3coc4ccccc4c3=O)cc2s1	1.0	6.1
CC1=C(C(=O)OCC(F)(F)F)C(c2ccc(Br)cc2)NC(=O)N1 (configuration not stated)	2.1	5.9
CC(C)O[C@H]1CN(C(=O)c2ccccc2N2CCC(=O)NC2=O)C[C@@H]1O	-1.2	3.5
COc1ccc(Cl)cc1NC(=O)CSc1nc(=O)n(CCN(C)C)c2c1CCCC2	-2.7	-0.5
CN(C)c1ccc(C=NN=c2sc3ccccc3n2C)cc1	2.9	20.9
OCc1ccccc1-c1nc2ccccc2o1	4.7	2.6
CC(C)(CO)NC(=O)CC1C(=O)NCCN1Cc1cccc(F)c1F (configuration not stated)	-4.8	-6.0
O=C(CC1CCCC1)Nc1cc2c(cc1Br)OCCO2	-3.9	-4.7
Cc1ccc(S(=O)(=O)c2cn(Cc3ccccc3)c3cc(N4CCOCC4)c(F)cc3c2=O)cc1	-5.8	-13.3
O=C1NCCN(CC2CCCCC2)C1CC(=O)N1CC=C(c2ccccc2)CC1 (configuration not stated)	9.3	-1.0
N#Cc1ccccc1Oc1nc(C(F)(F)F)nc2ccccc12	-1.4	-3.0
O=S(=O)(c1cccc2nsnc12)N1CCN(c2nnnn2-c2ccccc2)CC1	5.5	10.8
O=C1C2CCCN2C(c2ccc(Br)cc2)N1c1nccs1 (configuration not stated)	2.0	-0.2
Cc1n[nH]c(C)c1C(C)N(C)C(=O)c1ccc2oc(Cc3ccccc3)nc2c1 (configuration not stated)	-3.0&15.9	-6.6&2.9

3 compounds out of the list, arranged by count of non-hydrogen atoms, ascending.
smiles	NPYLR7 agonist	NPYLR7 agonist max-min
O=C(CC1CCCC1)Nc1cc2c(cc1Br)OCCO2	-3.9	-4.7
CC(C)(CO)NC(=O)CC1C(=O)NCCN1Cc1cccc(F)c1F (configuration not stated)	-4.8	-6.0
O=C1NCCN(CC2CCCCC2)C1CC(=O)N1CC=C(c2ccccc2)CC1 (configuration not stated)	9.3	-1.0

(next part)
smiles	NPYLR7 agonist	NPYLR7 agonist max-min
CC(C)CN1CCOC(CCNC(=O)c2cncs2)C1 (configuration not stated)	21.9	6.7
Fc1cc(NCc2ccccc2)nc(NCc2ccccc2)n1	0.1	0.7
CS(=O)(=O)NCC1CCCCN1Cc1ccncc1Cl (configuration not stated)	11.5	8.3
Cc1ccc(/C(=C2\OC(=O)c3ccccc32)[N+](=O)[O-])c(C)c1	2.3	0.8
OCC1(Cc2ccccc2Cl)CCN(Cc2cc(Cl)ccc2O)CC1	1.9	0.8
Cc1ccc(C)c2[nH]c(=O)c(CCNC(=O)CCCc3ccccc3)cc12	5.7	4.2
CC(=O)c1c(C)oc2c(Cl)cc(NS(=O)(=O)c3cccc([N+](=O)[O-])c3)cc12	6.5	3.4
COc1ccccc1-n1cc(Cn2ccnc2-c2nc[nH]c2C)cn1	2.2	2.1
O=C(O)C1(Oc2cccc(N3CCOCC3)c2)CCOCC1	4.7	3.5
CCc1nc(SCc2ccc(C)cc2)c2c(=O)n(C)c(=O)n(C)c2n1	-2.8	-0.9
c1ccc(CSc2nc(Oc3ccc4c(c3)OCO4)cc(-c3ccccc3)n2)cc1	-0.9	-1.9
CCOc1ccc(-n2c(C(C)N(Cc3ccccc3)C(=O)Nc3ccc(Cl)cc3Cl)nc3ccccc3c2=O)cc1 (configuration not stated)	-3.7	0.6
CCc1nc2ccc(C(=O)NCc3ccc4c(c3)OCO4)cn2c1N(C)CCC(C)C	-3.2	-9.4
CN(C)c1ncccc1CNC(=O)CCn1ccccc1=O	1.9	0.4
O=C(CN(C(=O)c1ccccc1)C1CC1)Nc1nc(CC(=O)N2CCN(c3ccccc3Cl)CC2)cs1	15.8	29.7
CN(C)CCN(C)C(=O)CC1(C)N=C(c2cccc3ccccc23)N(C)O1 (configuration not stated)	7.7	4.0
CC(Oc1ccc(Cl)cc1C(N)=O)C(=O)N(C)c1ccccc1 (configuration not stated)	-14.3	-20.7
CCc1c(C(=O)CN2C(=O)CC3(CCSC3)C2=O)[nH]c(C)c1C(C)=O (configuration not stated)	-0.8	-4.5
C=CCn1cc(CN2CCCC(c3nc4c(C)cccc4[nH]3)C2)c(C)n1 (configuration not stated)	-2.1	-9.3
COc1ccc(-c2csc(CNS(C)(=O)=O)c2)cc1	4.2	2.0
Cc1ccn2c(NC(=O)COc3ccccc3)c(-c3ccccc3C)nc2c1	-6.0	-1.5
CCOC(=O)N1CCN(c2nc(Nc3ccc(OC)cc3)c3nccnc3n2)CC1	2.9	7.9
COc1ccc(C2=NOC(CN(Cc3ccc(F)cc3)C(=O)C3CCCC3)C2)cc1OC (configuration not stated)	0.8	3.5
O=C(c1[nH]cnc1-c1ccccc1)N1CC[C@H](CO)[C@H](O)C1	0.2	-4.3
COc1cc2c(cc1OC)C1CN(C(=O)Nc3ccc(Cl)cc3Cl)CC(=O)N1CC2 (configuration not stated)	-4.4	-2.4
COc1ccc(/C=C/C2=NC(=C\c3sccc3C)/C(=O)O2)cc1	7.4	7.4
C=C1c2ccccc2C(=O)N1C(C)C(=O)NCCCn1nc(C)cc1C (configuration not stated)	-1.1	2.9
Cc1cccc(CSc2nnc(C(C)NS(=O)(=O)c3ccc(Cl)cc3)n2-c2ccc([N+](=O)[O-])cc2)c1 (configuration not stated)	-2.3	7.3
O=[N+]([O-])c1ccc(Cl)c(S(=O)(=O)NCc2ccco2)c1	-0.8	-3.4
CC(C)n1ncc2cc(NS(=O)(=O)c3cccc(C(F)(F)F)c3)cnc21	4.1	2.8
